Source: PubChem BioAssay (several laboratories)
RecA splice inh: Mtb RecA intein splicing inhibition. hit rate 0.75% among 290,000. AID 2221. inhibition, %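 (about 9 µM by stock and volumes)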. cell-free RecA intein splicing, fluorescence. P9WHJ3; in the data active means inhibition above about 30%; inconclusive means no clear call, values can overlap the other calls;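 further: 0% = vehicle wells and 100% = reference inhibitor control wells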
Target sequence (P9WHJ3 whole entry, looked up, canonical isoform): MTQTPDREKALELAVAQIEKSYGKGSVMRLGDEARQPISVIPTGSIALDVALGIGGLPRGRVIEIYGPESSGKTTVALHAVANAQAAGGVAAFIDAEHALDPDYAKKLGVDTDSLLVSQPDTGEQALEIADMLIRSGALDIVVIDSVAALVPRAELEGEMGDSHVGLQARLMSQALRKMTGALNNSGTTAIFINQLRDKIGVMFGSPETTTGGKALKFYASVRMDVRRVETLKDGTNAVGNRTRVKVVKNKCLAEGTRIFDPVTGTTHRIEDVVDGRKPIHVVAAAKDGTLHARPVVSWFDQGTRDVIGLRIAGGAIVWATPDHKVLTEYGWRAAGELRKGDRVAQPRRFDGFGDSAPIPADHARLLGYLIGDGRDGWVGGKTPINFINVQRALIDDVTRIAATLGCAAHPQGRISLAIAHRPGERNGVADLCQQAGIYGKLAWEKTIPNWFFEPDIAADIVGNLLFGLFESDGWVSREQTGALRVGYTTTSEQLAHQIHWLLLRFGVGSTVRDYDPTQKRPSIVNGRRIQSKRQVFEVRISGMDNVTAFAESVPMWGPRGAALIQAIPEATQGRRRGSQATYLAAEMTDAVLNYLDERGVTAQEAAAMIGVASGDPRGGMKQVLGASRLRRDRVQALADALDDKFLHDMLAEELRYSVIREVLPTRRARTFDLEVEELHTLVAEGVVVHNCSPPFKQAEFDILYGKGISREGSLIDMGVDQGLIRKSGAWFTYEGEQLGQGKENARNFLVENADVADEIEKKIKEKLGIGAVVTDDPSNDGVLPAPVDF
Mtb bLac sens: beta-lactam sensitization of Mtb H37Rv; M. tuberculosis H37Rv growth with meropenem, percent inhibition; hits of this screen are not shown here; inhibition, % at 25 µM; hit rate 0.27% among 330,000; AID 434955;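 active means about 74% or more and at least 40 points above the plate without the antibiotic, then above 30% in a dose series; inconclusive means first-round hits that could not be retested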;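 further: growth measured after seven days incubation then overnight dye step; 0% = bacteria only wells and 100% = bacteria with antibiotic; twin plates without the antibiotic show which effects depend on it; some results filed as inactive read as strong as hits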
Arbovirus inh: blocks arbovirus infection. arbovirus infection cell-based antiviral screen. inhibition, % at 10 µM. hit rate 0.37% among 200,000;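 active means inhibition from about 30%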;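 further: bluetongue infection of BSR cells; cell survival read as ATP light after 72 h; 0% = infected wells without compound and 100% = uninfected wells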
YopH inh: inhibitors of Yersinia enterocolitica YopH tyrosine phosphatase | fluorescence Ex485/Em525 | inhibition, %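 (about 10 µM by stock and volumes)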 | hit rate 0.16% among 140,000 | AID 898;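 active means inhibition of 50% or more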;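 further: controls were vehicle for no effect and minimum signal wells for full effect; inactives centre near -20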
Mtb H37Rv: M. tuberculosis H37Rv growth inhibitors, H37Rv strain (AID 1626); hit rate 0.95% among 220,000; inhibition, % at 10 µM, or IC50 in µM where a hit was titrated; M. tuberculosis H37Rv growth inhibition; higher % means a stronger effect;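 active means confirmed in a dose series; inconclusive means inhibition above 80% but not taken into the dose series; inactive means below 80% or under 30% at every dose of the series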;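 further: bacteria incubated seven days before Alamar blue readout; 0% = bacteria only wells and 100% = bacteria with antibiotic wells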
Arbovirus inh repeat: further read-out of Arbovirus inh, marked with its call; inhibition, %; measured here: 10K subset replicate screen; many hits read low in the repeat;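 first of two repeat runs on a subset; 0% = infected and 100% = uninfected wells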
An asterisk follows results filed as active; ? = inconclusive; · = no result given.

SMILES	RecA splice inh	Mtb bLac sens	Arbovirus inh	YopH inh	Mtb H37Rv	others
CC1C(=O)OC2C1CCC1(C)CCC(=O)C(C)C21 (configuration not stated)	4.4	3	·	·	·
O=C(c1ccccc1)N1CCC2(CC1)OCCO2	-0.3	-10	·	·	-4%
COc1ccc(-c2cc3ccccc3nc2N)cc1OC	-5.8	7	·	·	·
O=C(c1ccccc1)C(Sc1ncn[nH]1)c1ccccc1 (configuration not stated)	0.5	-3	-4	6	-3%	Arbovirus inh repeat=5
COc1ccc(CCNC(=O)CSc2nnc(-c3ccc(F)cc3)c3ccccc23)cc1OC	3.5	-1	7	-25	-1%
COC(=O)CSc1nc(-c2ccccc2)nc2ccc(F)cc12	-1.5	2	0	-41	-2%
O=C(NCc1ccco1)c1cc(S(=O)(=O)N2CCOCC2)ccc1Br	-0.7	-4	·	·	·
COc1ccc(/C=C/C(=O)NC2CCS(=O)(=O)C2)cc1 (configuration not stated)	1.3	-10	·	·	·
NC(=O)CC(NC(=O)c1cccc(Br)c1)c1ccc(N2CCCCCC2)c([N+](=O)[O-])c1 (configuration not stated)	3.9	-3	·	·	·
CN1CCN(C(=O)c2cnn(-c3ccccc3)c2NC(=O)c2ccc([N+](=O)[O-])cc2)CC1	0.4	6	·	·	·
COC(=O)c1ccc(NC(=S)N2CCN(Cc3ccccc3Cl)CC2)cc1	0.3	6	10	·	7%
CCCCC(=O)Nc1ccc(C(=O)NNC(=O)CCc2ccccc2)cc1	·	4	5	-3	4%
c1ccc(-n2c(-c3ccncc3)nnc2-c2cccs2)cc1	3.4	-8	17	-40	-1%
O=C(CNC(=O)c1[nH]cnc1C(=O)NC(c1ccccc1)c1ccccc1)OCc1ccccc1	13	4	·	·	·
Cc1ccccc1CC1(CO)CCCN(C(=O)c2cc(-c3ccccc3)no2)C1 (configuration not stated)	·	2	1	·	5%
CCN(CC(=O)Nc1c(F)cccc1F)C(=O)CCC(=O)c1ccc(C)cc1	2.3	-13	·	·	·
CCOC(=O)c1oc2ccccc2c1NC(=O)c1ccc(S(=O)(=O)N(C)C)cc1	-2.3	-1	-4	-10	-2%
CCOC(=O)Cn1ccc(NC(=O)c2ccc3c(c2)OCO3)n1	-0.8	-1	·	·	·
CN(Cc1nc(Cc2ccccc2F)no1)[C@@H]1CS(=O)(=O)C[C@H]1O	0.2	-4	4	·	4%
O=C(Cc1ccccc1)NNC1CC(=O)N(c2ccc(Oc3ccccc3)cc2)C1=O (configuration not stated)	2.1	-6	·	·	-5%
Cc1[nH]c2ccc(-c3n[nH]c(=S)n3-c3ccc(Br)cc3)cc2c1C	-0.8	-3	6	·	-1%
CC1C(=O)C(C)C(c2ccc3c(c2)OCO3)NC1c1ccc2c(c1)OCO2 (configuration not stated)	7.2	0	-5	-46	0%
CC(C)(C)OC(=O)N[C@@H](Cc1ccccc1)C(=O)NCC1CCC(C(=O)N[C@@H](CC(=O)O)C(=O)O)CC1 (some centres not stated)	-1.9	-6	·	·	·
CCOC(=O)C1CCCN(c2nc3ccccc3nc2C(C#N)C(=O)OCC)C1 (configuration not stated)	-27	52	-16	-48	5%
COc1ccccc1NC(CC(=O)c1ccccc1)C(=O)OCC(=O)c1ccc(C)cc1 (configuration not stated)	13	99	2	-5	?
CCOC(=O)N1C2=NC(C(=O)OC)=C(C(=O)OC)[C@@H]3N(C)c4ccc(OC)cc4[C@]23C[C@H]1C(=O)OC	-4.5	1	·	·	5%
COc1cccc2cc(C(C)N(CCCN3CCOCC3)C(=S)Nc3cc(C)cc(C)c3)oc12 (configuration not stated)	4.5	0	10	·	3%
COc1cc(OC)cc(-c2nc3nc(C)c(CCC(=O)NCc4ccco4)c(C)n3n2)c1	-2.8	-6	7	-38	0%
O=C(O)c1cccc(Cl)n1	6.0	-1	·	·	-8%
CC1CCN(C(c2ccccc2)c2nnnn2C(C)(C)C)CC1 (configuration not stated)	1.9	-9	3	-17	-1%
Cc1cccc2c(C(=O)N3CCN(c4ccccn4)CC3)cc(-c3cccc(Br)c3)nc12	16	78	·	·	·
O=C(CC1C(=O)NCCN1Cc1ccc(Cl)c(F)c1)NC1CCC1 (configuration not stated)	-2.4	-3	·	·	·
Cc1ccc(C2CC(c3cccc(Cl)c3)n3nc(N)nc3N2)cc1 (configuration not stated)	1.8	-1	-13	-31	-13%
Cc1ccc(N/C(=N/S(=O)(=O)c2cccs2)c2ccccc2)c(C)c1	2.1	0	-17	·	-4%
CC[C@@H](C)[C@H](CN[C@H](CNC)C(C)C)NC[C@@H](C)c1ccc(CC(C)C)cc1	1.8	100	·	·	·
CC(C)C(NC(=O)C1CCC(C(C)(C)C)CC1)C(=O)NCc1cccnc1 (configuration not stated)	2.0	2	2	16	-6%

Pulled one by one from the entries so far (6):
SMILES	RecA splice inh	Mtb bLac sens	Arbovirus inh	YopH inh	Mtb H37Rv	others
Cc1ccc(N/C(=N/S(=O)(=O)c2cccs2)c2ccccc2)c(C)c1	2.1	0	-17	·	-4%
CC[C@@H](C)[C@H](CN[C@H](CNC)C(C)C)NC[C@@H](C)c1ccc(CC(C)C)cc1	1.8	100	·	·	·
Cc1ccc(C2CC(c3cccc(Cl)c3)n3nc(N)nc3N2)cc1 (configuration not stated)	1.8	-1	-13	-31	-13%
O=C(Cc1ccccc1)NNC1CC(=O)N(c2ccc(Oc3ccccc3)cc2)C1=O (configuration not stated)	2.1	-6	·	·	-5%
COC(=O)c1ccc(NC(=S)N2CCN(Cc3ccccc3Cl)CC2)cc1	0.3	6	10	·	7%
COc1ccc(CCNC(=O)CSc2nnc(-c3ccc(F)cc3)c3ccccc23)cc1OC	3.5	-1	7	-25	-1%

Three structures from above, ordered by length of the SMILES, descending.
SMILES	RecA splice inh	Mtb bLac sens	Arbovirus inh	YopH inh	Mtb H37Rv	others
COc1cc(OC)cc(-c2nc3nc(C)c(CCC(=O)NCc4ccco4)c(C)n3n2)c1	-2.8	-6	7	-38	0%
Cc1ccc(N/C(=N/S(=O)(=O)c2cccs2)c2ccccc2)c(C)c1	2.1	0	-17	·	-4%
Cc1ccc(C2CC(c3cccc(Cl)c3)n3nc(N)nc3N2)cc1 (configuration not stated)	1.8	-1	-13	-31	-13%

(more compounds)
SMILES	RecA splice inh	Mtb bLac sens	Arbovirus inh	YopH inh	Mtb H37Rv	others
Cc1ccccc1SCC(=O)N/N=C/c1ccc(F)cc1	-2.0	8	·	·	·
CC1CN(C(=O)Cn2cc(S(=O)(=O)CC(=O)N(C)c3ccccc3)c3ccccc32)CC(C)O1 (configuration not stated)	-1.3	-8	·	·	·
COCCN=c1scc(-c2ccccc2)n1/N=C/c1c[nH]c2ccccc12	12	3	-30	-17	18%
Cc1cccc(NC(=O)c2ccc(F)c(S(=O)(=O)N3CCC4(CC3)OCCO4)c2)c1	-1.4	1	·	·	·
Cc1[nH]n(-c2ccccc2)c(=O)c1CCOC(=O)c1cccc(C(F)(F)F)c1	-2.6	0	3	-20	-6%
Cc1ccc2nc(NC(=O)C3=NN(c4ccccc4)C(=O)CC3)sc2c1	-0.1	13	60*	-29	8%
Cc1ccc(NC(=O)Cn2cc(S(=O)(=O)c3ccccc3)c(=O)c3cc(F)ccc32)cc1	-1.8	6	-8	-8	·
Cn1c(=O)n(Cc2ccc(F)cc2)c(=O)c2c1nc1n2CCCN1C1CCCCC1	-1.5	100	10	-31	-15%
CC(C)(C)[C@H]1C=C(C(=O)N2CCN(Cc3ccccc3)CC2)O[C@@H](OCc2ccc(CO)cc2)C1	3.9	35	-9	·	6%
CCOc1cc(NC(=S)Nc2cccc(C)c2)c(OCC)cc1NC(=O)CC(C)C	·	·	-2	-24	3%
Cc1cc(NC(=O)c2cccc3c2C(=O)N(C2CCCCC2)C3)ccc1Br	-0.7	1	·	·	·
O=C(Nc1ccc2nsnc2c1)N1CCCCC1	-3.3	-2	-9	-8	-8%
O=C1C2CCCN2C(c2ccc(F)cc2)N1c1ccc(Cl)cc1 (configuration not stated)	1.9	-4	4	-19	-5%	Arbovirus inh repeat=7
O=C1Nc2ccccc2/C1=C/c1ccnc2ccccc12	0.8	4	·	·	·
CCOC(=O)CCc1c(C)nc2cc(-c3ccccc3OC)[nH]n2c1=O	1.3	0	-9	-8	5%
CC(C)(C)c1nnc(NC(=O)C2CCN(C(=O)c3ccco3)CC2)s1	0.7	-8	·	·	·
OCCCc1nc2ccccc2n1CCOc1ccccc1	0.3	-6	5	-46	4%	Arbovirus inh repeat=3
Cc1cccc(N2C(=O)C3C4C=CC(C5CC45)C3C2=O)n1 (configuration not stated)	-3.5	4	·	·	3%
O=C(CC1S/C(=N\S(=O)(=O)c2ccccc2)N(c2ccccc2)C1=O)Nc1ccc(F)cc1 (configuration not stated)	3.1	2	0	-23	22%
Cc1ccc(NC(=O)c2ccccc2Br)cc1S(=O)(=O)N(C)C	7.9	-7	-2	·	7%
O=C(CCl)N=c1sccn1Cc1ccccc1Cl	19	99	·	·	55%
CCCOc1ccc(Cc2c(O)nc(N)[nH]c2=O)cc1C	0.0	3	·	·	·
O=c1oc2cc(O)ccc2c2oc3cc(O)ccc3c12	-16	-10	-6	-24	-3%
CC1=NN(c2nc3ccccc3[nH]2)C(=O)/C1=C/N(C)C	2.9	8	-21	·	1%
Cc1cccc(C(=O)NNC(=O)c2ccc(Cl)cc2)c1O	4.4	11	-17	-37	0%
CCOc1ccc(Cn2nnc(C(=O)Nc3cc(C)cc(C)c3)c2N)cc1	-0.5	?	-7	-15	-1%	Arbovirus inh repeat=-8
COc1cc2nc(=S)n3[nH]c(COc4ccccc4C)nc3c2cc1OC	-5.0	1	-21	-11	8%
O=[N+]([O-])c1ccc(N2CCC(=NOCc3ccc(Cl)cc3)CC2)cc1	-0.9	-14	-4	-5	7%
Cc1ccc(-n2nc3c(c2NC(=O)c2ccco2)CS(=O)(=O)C3)cc1	-1.2	2	·	·	·
CCOC(=O)c1sc(C)c2c(=O)n(CCc3ccccc3)nnc12	12	-14	-2	-24	-2%
CN(C)CC/C=C1\c2ccc(F)cc2Sc2cc(F)c(Cl)cc21	5.6	100	·	·	·
CN(C)c1cccc(C(=O)n2cc(C(=O)c3cc(F)ccc3O)cn2)c1	-3.5	35	5	-23	4%
O=S(=O)(c1ccc(Cl)cc1)N1CCN(Cc2c[nH]c3ccccc23)CC1	2.5	7	11	-26	-6%
COc1cc2c3cc1Oc1cc(ccc1O)C[C@@H]1c4c(cc(OC)c(O)c4Oc4ccc(cc4)C[C@H]3N(C)CC2)CCN1C	-2.8	6	-42	-23	5%
CC(C)N1CCC(N2CCN(C3CCCC3)CC2CCO)CC1 (configuration not stated)	-0.1	-3	11	·	-5%
O=C(NNC1=Nc2ccccc2SC1)c1ccccc1F	1.7	93	·	·	74%
O=C(OCC(=O)N1CCc2ccccc21)c1ccccc1	1.5	-18	0	-30	9%
C=CCOc1ccc(C2/C(=C(\O)c3ccc4c(c3)CC(C)O4)C(=O)C(=O)N2CCN2CCOCC2)cc1OCC (configuration not stated)	1.5	-6	·	·	·
CCOC(=O)N1CCN(C(=O)C(NC(=O)C2CCC(C)CC2)C(C)C)CC1 (configuration not stated)	·	4	-3	-32	-6%	Arbovirus inh repeat=-2
CSc1ccccc1NC(=O)CN(c1cc(C)cc(C)c1)S(C)(=O)=O	0.3	4	-2	-27	4%
CN(C(=O)c1nn(C)c2c1CS(=O)(=O)c1ccccc1-2)c1cccc(Cl)c1	0.7	-5	·	·	·
O=C(OCc1c(F)cccc1Cl)c1cc([N+](=O)[O-])ccc1N1CCOCC1	11	4	·	·	·
O=C(CN1C(=O)NC2(CCCCCC2)C1=O)c1ccc(Cl)s1	-0.6	-13	·	·	·
CCOC(=O)C(NC(C)=O)C(=O)O (configuration not stated)	0.5	6	5	-12	-2%
COc1cccc(NC(=O)CN(C)C(=O)c2cc(-c3ccc(F)cc3)nc3ccccc23)c1	-1.6	9	·	·	·
O=C(Nc1ccc2nc(-c3ccccc3)[nH]c2c1)c1cccs1	2.9	20	-34	-21	3%
O=C1CSc2ccc(S(=O)(=O)N3CCN(c4ccccc4)CC3)cc2N1	-2.0	1	·	·	·
O=C(Cc1ccc([N+](=O)[O-])cc1)Nc1cccnc1	·	2	·	·	-6%
COc1ccccc1N=Nc1c(C)[nH][nH]c1=O	0.6	3	·	·	·

An excerpt. The share of hits here may be higher or lower than overall.
